Kir21 block – Kir2.1 (mouse) channel inhibition; P35561; hit rate 0.85% among 310,000; B-score at 10 µM; HEK293-Kir2.1, FluxOR thallium flux fluorescence; stronger effect = lower value;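 active means fluorescence ratio B-score at or below minus 3 SD of library scores, with starting-brightness B-score within 2 SD, cut at about -4.2 in these data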;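 further: channel flux triggered by added potassium and thallium sulfate stimulus; B-score of peak minus minimum fluorescence over baseline after thallium stimulus; more negative B-score means stronger Kir2.1 block with less thallium influx; some compounds called inactive have numbers as strong as hits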
Target sequence (P35561 whole entry, looked up): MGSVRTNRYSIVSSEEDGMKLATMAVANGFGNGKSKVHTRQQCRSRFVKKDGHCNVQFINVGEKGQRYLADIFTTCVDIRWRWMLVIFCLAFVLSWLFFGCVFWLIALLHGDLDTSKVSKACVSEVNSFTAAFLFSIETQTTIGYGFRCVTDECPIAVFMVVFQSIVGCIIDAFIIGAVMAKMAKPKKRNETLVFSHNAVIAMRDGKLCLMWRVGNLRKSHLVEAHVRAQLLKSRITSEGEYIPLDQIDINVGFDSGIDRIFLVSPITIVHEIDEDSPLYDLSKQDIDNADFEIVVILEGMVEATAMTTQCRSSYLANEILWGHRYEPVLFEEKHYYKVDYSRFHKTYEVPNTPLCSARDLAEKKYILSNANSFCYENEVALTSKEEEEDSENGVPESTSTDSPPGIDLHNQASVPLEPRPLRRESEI
* = called active by the depositor. The list is partial; most or all hits stand in other tables.

Kir21 block,mol
-0.94,Cc1cccc(NCC(=O)N/N=C\c2cccn2C)c1
-0.61,COc1ccc(NC(=O)CCNC(=O)Cn2cnc3ccccc3c2=O)c(OC)c1
-0.56,CCNc1nc(NCC)nc(SCCOC(=O)c2ccccc2)n1
-0.52,CCOc1ccc(C2C(C(=O)Nc3ccccc3)=C(C)N=c3s/c(=C/c4cccc(OCC(=O)O)c4)c(=O)n32)cc1 (stereo not drawn)
-2.12,Cc1cccc(-n2c(CNC(=O)Cc3ccccc3)n[nH]c2=S)c1
-0.84,CCC(C)C(NC(=O)c1ccccc1NC(=O)c1ccc(OC)cc1)C(=O)NCCCn1ccnc1 (stereo not drawn)
-0.83,O=C(O)c1ccc(CSc2nnc(-c3ccccc3)n2-c2ccccc2)cc1
-0.98,Cc1nn(-c2ccc(F)cc2)c(Cl)c1C(=O)N(C)CC(=O)Nc1cccc(F)c1
0.67,Cc1cc(=O)[nH]c(N/N=C/CCc2ccccc2)n1
0.91,O=C(NCCN1CCN(c2ccccc2)CC1)Nc1ccc(Cl)cc1
1.12,O=C(COc1ccc2c(c1)OCO2)Nc1ccc2c(c1)oc1ccccc12
0.04,COC(=O)Nc1ccc(S(=O)(=O)N2CCC(C(=O)N3CCCCC3C)CC2)cc1 (stereo not drawn)

Kir21 block,mol
-2.58,Cc1ccccc1-c1noc(C2CCCCC2)n1
0.5,Cc1ccccc1CNC(=O)Cn1cnc(S(=O)(=O)N2CCCC2)c1
2.19,Cc1nc2c(ccc3c([N+](=O)[O-])cccc32)c(C)c1C
1.04,CCOc1ccc(OCCCC(=O)O)cc1
1.05,O=C(NCc1ccc(F)cc1)C1CCC(CNc2c(N3CCOCC3)c(=O)c2=O)CC1 (stereo not drawn)
-0.06,CCOc1cc(CNn2cnnc2)cc(Br)c1OCC(=O)NC1CCCCC1
1.75,O=C(CN1CCCCC1)Nc1ccc(Br)cc1[N+](=O)[O-]
-0.01,Cc1ccccc1OCC(=O)Nc1ccc2c(c1)OCO2
0.34,CC(=O)Nc1ccc(S(=O)(=O)N2c3ccc(F)cc3CCC2C)cc1 (stereo not drawn)
0.15,COc1cccc(C(=O)/C=C2\NCCc3cc(OC)c(OC)cc32)c1
-0.24,Cc1cc(C)n2nc(SCc3ccccc3F)nc2n1
3.21,O=C(Nc1cccc(C(F)(F)F)c1)C(Sc1n[nH]c(=O)[nH]c1=O)c1ccccc1 (stereo not drawn)

Kir21 block,mol
0.01,COC(=O)c1ccc(NC(=S)NCCc2ccccc2)cc1
0.89,CCN(CC)S(=O)(=O)c1cc(NC(=O)Cc2ccsc2)ccc1C
0.58,CCOC(=O)c1nnn2c1nc(N1CCN(c3ccccc3)CC1)c1ccccc12
0.84,COc1ccc(OCC(=O)Nc2c(Cl)ccc3nsnc23)cc1
0.37,CCC(=O)Nc1cccc(-c2ccc(N3CCC(C)CC3)nn2)c1
-1.25,O=C(CCSCCc1ccncc1)NCCCN1CCOCC1
0.02,CC(=O)Nc1ccc2c(c1)nc(CCN1CCOCC1)n2C
1.47,Cc1c(C(=O)NCCN2C(=O)S/C(=C\c3cccnc3)C2=O)cccc1[N+](=O)[O-]
-0.15,COc1cc(C(=O)CSc2nccn2C)cc(OC)c1OC
-0.05,CCN1CCCC1CNC(=O)c1ccc(N2CCCC2=O)cc1 (stereo not drawn)
0.13,O=C(NCCN1CCCCC1)Nc1ccc(Br)cc1
-0.01,c1ccc(CCNc2nc3ccccc3n3nnnc23)cc1

4 records picked at random from the list so far, as already listed:
Kir21 block,mol
-0.52,CCOc1ccc(C2C(C(=O)Nc3ccccc3)=C(C)N=c3s/c(=C/c4cccc(OCC(=O)O)c4)c(=O)n32)cc1 (stereo not drawn)
0.89,CCN(CC)S(=O)(=O)c1cc(NC(=O)Cc2ccsc2)ccc1C
0.01,COC(=O)c1ccc(NC(=S)NCCc2ccccc2)cc1
0.91,O=C(NCCN1CCN(c2ccccc2)CC1)Nc1ccc(Cl)cc1

(more compounds)
Kir21 block,mol
1.22,O=C1NCCCC1C(=O)N1CCN(C(c2ccccc2)c2ccccc2)CC1 (stereo not drawn)
0.61,O=C(O)COc1ccc(/C=N/Nc2nc(Nc3ccccc3)nc(N3CCCCC3)n2)cc1
1.5,COc1ccc(CNC(=O)CSc2nnc3c(n2)[nH]c2ccc(OC)cc23)cc1
0.98,COc1ccc(C2CC(=O)Oc3c(C(CCN4CCOCC4)c4cc(OC)c(OC)c(OC)c4)c(OC)cc(OC)c32)cc1 (stereo not drawn)
0.08,O=C(O)/C(=C\c1cccc([N+](=O)[O-])c1)c1ccc(S(=O)(=O)N2CCCCC2)s1
-0.81,COc1cccc(Nc2nnc(Cc3cccnc3)c3ccccc23)c1
-0.3,COc1ccc(C(=O)COC(=O)CCNS(=O)(=O)c2ccc(NC(C)=O)cc2)c(OC)c1
-1.61,O=C(CCN1C(=O)[C@@H]2Cc3ccccc3CN2C1=O)NCCc1ccccc1
-0.01,CNC(=O)C1CCC(=O)N1Cc1ccc(C)cc1 (stereo not drawn)
0.51,CC(=O)c1ccccc1OC(=O)COc1ccc([N+](=O)[O-])cc1
-1.04,O=C(c1ccccc1)N1CCC(c2nc(-c3ccc(S(=O)(=O)N4CCOCC4)cc3)no2)CC1
1.14,O=C(Nc1ccc2c(c1)OCO2)c1nn(-c2ccccc2)c(=O)c2ccccc12

Kir21 block,mol
0.09,Nc1ccc(SC(F)(F)F)cc1
0.05,Cc1cc(C)nc(SCc2ccccc2C#N)n1
0.38,CCOc1ccc2ccccc2c1C(=O)N[C@@H]1C(=O)N2[C@@H]1SC(C)(C)[C@@H]2C(=O)O
0.67,O=C(CCCCn1c(=O)c2ccccc2n(CC(=O)NC2CCCC2)c1=O)NC1CCCC1
-1.27,CCN(C(=O)c1cc2cc(OC)ccc2oc1=O)c1cccc(C)c1
-0.44,O=C(COc1ncnc2ccccc12)NCCc1ccccc1
0.55,C[N+]1(CC(=O)OCCCC2CCCCC2)CCCC1
0.33,C/C(=N\Nc1ccc(Cl)c(C(=O)O)c1)c1cc2ccccc2o1
-0.51,COc1ccc(NC(=O)c2ccc3nc[nH]c3c2)cc1
0.01,O=C1CCC(C(=O)N2CCN(c3ccccc3)CC2)CN1CC1CCCCC1 (stereo not drawn)
0.67,COc1ccc(C(=O)Nc2nc(CC(=O)NCc3ccc(F)cc3)cs2)cc1
2.08,Cc1nc(Nc2ccc(S(=O)(=O)N3CCCC3)cc2)c2nnn(Cc3ccccc3)c2n1

Kir21 block,mol
0.92,Cc1cccc(Nc2nc(N)c([N+](=O)[O-])c(N3CCCC(C)C3)n2)c1 (stereo not drawn)
-0.29,CCC(=O)OCC(=O)Nc1cc(C)c(C)cc1[N+](=O)[O-]
2.37,OCCNc1nc(Nc2ccccc2Cl)nc(N2CCCC2)n1
-0.66,CC1CCN(CCCn2c(=S)[nH]c3c(sc4ccccc43)c2=O)CC1
-1.08,O=C(COC(=O)c1cc(=O)[nH]c2ccccc12)Nc1nccs1
1.4,CCOc1ccc(S(=O)(=O)N(C)c2ccc(OCC(=O)N3CCOCC3)cc2)cc1
-1.05,O=C(NCc1ccc2c(c1)OCO2)c1ccccc1
1.77,CS(=O)(=O)Nc1ccccc1C(=O)N1CCCC1
-2.74,O=C1C2C3C=CC(C3)C2C(=O)N1Nc1c(Cl)cc(Cl)cc1Cl (stereo not drawn)
0.03,Cc1ccc(-c2ccc(/C=C/C(=O)c3ccccc3)o2)cc1
1.61,O=C(COc1ccc(Cl)cc1Cl)NC(=S)Nc1ccccc1C(=O)O
-1.61,O=C(NCc1ccccc1Cl)c1cccc(OC2CCN(C(=O)C3CC3)CC2)c1

Two entries from above in a different format:
canonical_smiles | Kir21 block
CS(=O)(=O)Nc1ccccc1C(=O)N1CCCC1 | 1.77
O=C1C2C3C=CC(C3)C2C(=O)N1Nc1c(Cl)cc(Cl)cc1Cl (stereo not drawn) | -2.74

More structures
Kir21 block,mol
0.62,O=C(Nc1cccc(Cl)c1)N1CCC(CO)(CCOc2ccccc2)CC1
0.01,CC1=NN(c2ccccc2)C(=O)C1N=Nc1cccc(O)c1 (stereo not drawn)
-0.12,N#CCCn1cc(C(=O)N2CCCCC2)c(-c2ccc([N+](=O)[O-])cc2)n1
0.07,OC1(C#CCN2CCCC2)CCCCC1
1.65,CCc1ccc(N2CC(C(=O)NCc3ccc4c(c3)OCO4)CC2=O)cc1 (stereo not drawn)
0,Cc1ccccc1N1CCN(C2CCCN(C(=O)CCN3CCCCO3)C2)CC1 (stereo not drawn)
-0.68,COc1ccc(C2SCC(=O)N2CCCN(C)C)cc1 (stereo not drawn)
-0.81,COc1ccc(N2CCN(C3CCCN(C(=O)CN4CCCCC4=O)C3)CC2)cc1 (stereo not drawn)
1.49,CCCn1nc(C(=O)OCC(=O)Nc2cccc(S(N)(=O)=O)c2)c2ccccc2c1=O
-1.79,Cc1cc(C(=O)OCC(=O)c2c(N)n(C)c(=O)n(C)c2=O)c(C)o1
0.77,COc1cccc(NC(=O)CCNS(=O)(=O)c2cccc3nsnc23)c1
-0.19,COCCNC(=S)N1CCN(c2nc(-c3ccccc3)cs2)CC1

Kir21 block,mol
1.94,Cc1ccc(-n2nnnc2-c2cnc(-c3cccnc3)nc2C(F)(F)F)cc1
0.57,Cc1ccc(C)c(NC(=O)NCc2ccccn2)c1
0.25,OCC[C@H]1C[C@@H](O)[C@H](O)[C@]2(CCCO2)O1
-0.72,CCCOC1CCCN(C(=O)c2cc(COc3c(F)cccc3F)on2)C1 (stereo not drawn)
-0.06,C/C(=N\Nc1ccccc1Cl)c1ccc(-n2ccnc2)cc1
1.16,CC(=O)c1nc(N2C(=O)C3CC=C(C)CC3C2=O)sc1C (stereo not drawn)
0.83,O=c1cc(O)c2c(=O)n(-c3ccccc3)c3ccccc3c2o1
-1.04,COC(=O)c1ccc(S(=O)(=O)NCCc2ccccc2OC)n1C
0.32,CCN(CCO)c1ncnc2c1sc1nc(CC(C)C)c3c(c12)CC(C)(C)OC3
-1.12,CN1C(=O)[C@H]2[C@@H](/C=C/c3ccccc3)N3C(=O)CN(CCO)C(=O)[C@@]3(Cc3ccccc3)[C@H]2C1=O
0.73,COc1ccc(NC(=O)C2C3C=CC(O3)C2C(=O)NCc2cccnc2)cc1 (stereo not drawn)
0.7,OC1(c2cccc(C(F)(F)F)c2)CCN(Cc2nc(-c3cnccn3)no2)CC1

Kir21 block,mol
0.51,O=c1[nH]cnc(O)c1C(c1ccc(Br)cc1)c1c(O)nc[nH]c1=O
1.82,COc1ccccc1N1CCN(CC(=O)c2ccc3ccn(C(C)=O)c3c2)CC1
-0.87,Cn1c(=O)c2c(nc(CN3CCN(CCO)CC3)n2CCc2ccccc2)n(C)c1=O
0.79,Cc1nc(NC(=O)C2CC3CCCC(C2)C3=O)sc1C (stereo not drawn)
1.08,COc1ccc(NC2=C(C)C(=O)CC2)cc1
1.04,CC(=O)Nc1cccc(NC(=O)C2CC3CCC2C3)c1 (stereo not drawn)
-0.04,CCOCC(O)CNC(=O)c1ccc(OC2CCN(C(=O)c3cccnc3)CC2)cc1 (stereo not drawn)
0.58,COc1ccc(-c2cc(C(F)(F)F)n3nc(C(=O)Nc4c(C)n(C)n(-c5ccccc5)c4=O)c(Cl)c3n2)cc1
-0.72,O=C(O)CCCCCN1C(=O)CCC1=O
-1.41,CC(CN1CCCC1)OC(=O)c1cccc(F)c1 (stereo not drawn)
1.14,CS(=O)(=O)N1CCC(C(=O)Nc2cccc(F)c2)CC1
0.79,CC(C)=C1SC(N2CCN(c3cccc(Cl)c3)CC2)=NC1=O

Kir21 block,mol
-0.16,C=CCOc1ccc(CNc2ccc(NC(=O)CCC)cc2)cc1OCC
-1.41,CCSc1nnc(N)s1
-0.66,Cc1ccc(NC(=O)C2CCN(C(=O)c3ccc(Cl)cc3)CC2)nc1
0.13,O=C(CSc1ncnc2ccccc12)Nc1ccc2c(c1)OCO2
-0.16,Cc1nnc(C)n1/N=C/c1cccn1C
-0.01,Cc1c(C(=O)OCC(=O)N2CCCC2)cccc1[N+](=O)[O-]
-2.8,CCC(CC)NC(=O)C1CCN(S(=O)(=O)c2cccs2)CC1
-1.6,Cc1nc(C(F)(F)F)c(C(=O)N/N=C(\N)c2cccnc2)s1
0.96,O=C(NN1C(=O)C2C3CCC(O3)C2C1=O)c1ccc(Cl)cc1 (stereo not drawn)
0.6,CCN(CC)c1ccc(CC(=O)NC(C)Cc2ccccc2)cc1 (stereo not drawn)
0.3,O=c1c(Cc2ccc(Cl)cc2)c(O)ccn1Cc1ccncc1
-0.67,N#Cc1cnn(-c2ccc(F)cc2)c1N

Kir21 block,mol
-0.67,COc1ccc(C(Cl)=C(c2ccc(OC)cc2)c2ccc(OC)cc2)cc1
1.37,Cc1cnc(C(=O)Nc2ccc(C(C)C)cc2)cn1
-1.7,O=C1CC(=O)N(CCc2ccc(F)cc2)C(=O)N1
0.52,COc1ccc([N+](=O)[O-])cc1NC(=O)C(C)OC(=O)c1cccnc1Cl (stereo not drawn)
-1.6,Cc1cccc(CC(=O)NCCn2c(C)cc3ccccc32)c1
0.47,CCNC(=O)NC(C(=O)OC)C12CC3CC(CC(C3)C1)C2 (stereo not drawn)
-1.39,S=c1oc(-c2ccncc2)nn1CCc1ccncc1
0.06,CCOC(=O)C(=CNc1ccccc1C)C(=O)OCC
0.48,CC(C)CC(=O)Nc1ccnc(-c2ccncc2)n1
0.36,COc1ccc(CC(=O)NC(=S)Nc2cccc(C)c2)cc1
-0.68,O=C(CSc1nnc(CNC(=O)c2cccc(C(F)(F)F)c2)o1)NCC1CCCO1 (stereo not drawn)
-0.03,COc1ccc(C2C3=C(CCCC3=O)N(CC(=O)O)C3=C2C(=O)CCC3)cc1

The last 2 compounds of the part above come first, to join the parts:
Kir21 block,mol
-0.68,O=C(CSc1nnc(CNC(=O)c2cccc(C(F)(F)F)c2)o1)NCC1CCCO1 (stereo not drawn)
-0.03,COc1ccc(C2C3=C(CCCC3=O)N(CC(=O)O)C3=C2C(=O)CCC3)cc1
-0.28,CC(C)(C)c1ccc(S(=O)(=O)NCC2CCCO2)cc1 (stereo not drawn)
-1.61,O=c1cnnc(Nc2ccccc2)[nH]1
-0.88,CCOC(=O)c1ccc(NC(=O)C2COc3ccccc3O2)cc1 (stereo not drawn)
-1.37,CCc1cccc(C)c1NC(=O)C(c1ccc(O)cc1)N1CCC1=O (stereo not drawn)
0.85,Nc1ncnc(Nc2cc(Cl)cc(Cl)c2)c1[N+](=O)[O-]
0,CNCC(O)Cn1c(C(F)(F)F)nc2ccccc21 (stereo not drawn)

Screening results from PubChem BioAssay.
